Screening results (PubChem BioAssay)
CBX7 inh – blocks human CBX7 binding to H3K27me3 peptide | AID 1224903 | normalised signal (fraction of DMSO) (test concentration not listed) | AlphaScreen His6-CBX7 / biotin-H3K27me3 peptide binding; active compounds read low | 66,000 tested, 1.1% active | O95931; in the data active means normalised signal below about 0.5;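 further: 100 nL library stock added to about 20 µL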
Target sequence (O95931 whole entry, looked up): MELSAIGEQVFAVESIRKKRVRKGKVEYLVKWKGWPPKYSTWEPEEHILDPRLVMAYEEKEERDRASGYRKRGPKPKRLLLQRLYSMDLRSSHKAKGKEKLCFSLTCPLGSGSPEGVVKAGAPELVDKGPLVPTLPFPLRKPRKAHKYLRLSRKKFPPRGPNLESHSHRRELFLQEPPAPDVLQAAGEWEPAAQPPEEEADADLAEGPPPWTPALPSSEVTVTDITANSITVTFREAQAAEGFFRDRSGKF
CBX7 inh z-score – also measured in CBX7 inh; calls as there; z-score; measured here: z-score of CBX7 signal; some inactives read as strong as hits; reference of the scale not given here;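 same signal on another scale; lower means less binding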
An asterisk follows results filed as active. A portion of the library. The share of hits here may be higher or lower than overall.

SMILES	CBX7 inh	CBX7 inh z-score
c1ccc(-c2noc(CN3CCN(Cc4ccc5c(c4)OCO5)CC3)n2)cc1	1.3	2.4
CCC(C(=O)Nc1c2c(nn1C(C)(C)C)CSC2)c1ccccc1 (centres undefined)	0.97	-1.3
Cc1ccc(-c2nc(CS(=O)(=O)CC(=O)Nc3cccc(C)c3C)c(C)o2)cc1	0.98	-0.038
CCOC(=O)c1ccc(NC(=O)C2(c3ccc(OC)cc3)CCOCC2)cc1	1.1	1.7
CCOc1cc2c(cc1OCC)C1C(C(=O)NC3CC3)c3ccccc3C(=O)N1CC2 (centres undefined)	1.1	0.63
COc1ccc(N2Cc3cccc(C(=O)Nc4ccc(F)c(Cl)c4)c3C2=O)cc1	0.95	-1.2
O=S(=O)(Cc1ccccc1)c1nc2ccccc2n1Cc1ccccc1F	0.85	-1.6
COc1ccc(CNC(=O)c2ccc3nc(N4CCOCC4)sc3c2)cc1	1.1	2.3
O=C(CCc1nc(-c2ccccc2F)no1)Nc1ccc(F)cc1	0.93	-1.1
Cc1ccc(-c2nc(C(=O)NCCc3ccc(Cl)cc3)c(C)o2)cc1	0.95	-1.3
Cc1cc(C)cc(-n2ccnc2SCC(=O)Nc2ccc(Cl)c(Cl)c2)c1	0.99	-0.27
Cn1c(=O)c(-c2nc3ccccc3[nH]2)c(O)c2ccccc21	1.1	3.2
CCCC1CCC(c2nc(-c3cccnc3)no2)CC1 (centres undefined)	1.1	2.3
Cn1c(=O)c(=O)n(C)c2cc(C(=O)NCc3ccccc3Cl)ccc21	0.71	-1.2
CCOC(=O)C1CCN(c2nc3cc(Br)ccc3s2)CC1	1.1	2.4
CCCCCn1c(=O)[nH]c2cc(C(=O)NCc3ccc(OC)cc3)ccc2c1=O	0.97	-0.53
CCOc1ccc(CCN2C(=O)CCC2(C)C(=O)NC2CCCCCCC2)cc1OCC (centres undefined)	1.2	1.7
Clc1ccc(-c2cc(-c3ccc(Cl)cc3)n(-c3ccc(Br)cc3)n2)cc1	1	-0.069
COc1ccc(N2CCN(CCCNC(=O)CC3Oc4ccccc4NC3=O)CC2)cc1 (centres undefined)	0.86	-0.79
c1ccc(-c2csc(N3CCN(Cc4ccc5c(c4)OCO5)CC3)n2)cc1	0.96	-0.98
O=C(Nc1ccc(F)cc1)C(Cc1ccccc1)NS(=O)(=O)c1ccc(Br)s1 (centres undefined)	0.76	-0.95
O=C(CN1C(=O)CSc2ccccc21)NC1CCCC1	1	-0.031
COC(=O)CN(c1ccc2c(c1)OCO2)S(=O)(=O)c1ccc2c(c1)n(C)c(=O)c(=O)n2C	0.95	-1.2
Cc1c(C(=O)N2CC(C)CC(C)C2)sc2ncnc(N3CCN(c4ccccc4F)CC3)c12 (centres undefined)	0.94	-0.78
Cc1ccc(N(CC(=O)Nc2cc(Cl)ccc2C)S(=O)(=O)c2c(C)noc2C)cc1	0.92	-0.64
O=C1CN(C(=O)c2ccc(Br)cc2)C(c2ccc(F)cc2)c2cc(F)ccc2N1 (centres undefined)	0.94	-1.4
Nc1ccc(S(=O)(=O)Nc2nccc(/C=C/c3ccc([N+](=O)[O-])cc3)n2)cc1	0.72	-1.3
COc1cccc(NC(=O)c2cc3c(-c4cccc(OC)c4)nn(C)c3s2)c1	0.81	-2.5
COc1ccc(-n2c3c(cc(C#N)c2=O)C(=O)CCC3)cc1	1.1	1
Nc1ccc2nn(-c3cccc4ccccc34)nc2c1	0.89	-3.3
CCn1c(=O)c(C(=O)NCCO)c(O)c2ccccc21	1.2	2.2
O=S(=O)(c1ccc(-c2cn3ccccc3n2)cc1)N1CCCCCC1	1.1	0.18
COc1ccccc1C1c2c(-c3ccccc3)n[nH]c2C(=O)N1c1ccc(Cl)cc1 (centres undefined)	0.76	-2.5
Cc1nc2c(C(=O)NCCC3=CCCCC3)cnn2c(C)c1Cc1ccccc1Cl	0.87	-3.6
COc1ccc(-c2ccc(=O)n(CC(=O)Nc3cccc(C)c3C)n2)cc1	0.8	-5.5
CCCCNC(=O)c1nc(-c2ccc(CC)cc2)oc1C	0.83	-1.1
COc1ccc(-c2cc(C(=O)Nc3sc4c(c3C#N)CCC4)no2)cc1	1.2	1.1
COc1ccc(Nc2nc3nonc3nc2Nc2cccc(C)c2)cc1	0.88	-2
COC(=O)c1ccc(NC(=O)c2cnc3sccn3c2=O)cc1	1.1	1.6
CC(C)(C)C(C(Oc1ccc(Cl)cc1)n1cncn1)n1nnnc1C(c1ccccc1)N1CCCCC1 (centres undefined)	0.78	-3
COc1cc(NC(=O)c2cc(-c3ccc(F)cc3)on2)c(OC)cc1Cl	1	0.41
Cc1oc(-c2ccccc2F)nc1CN1CCC(C(=O)NCc2cccnc2)CC1	0.99	-0.18
Cc1nc2c(C)cccc2c2c1CC(C)S2 (centres undefined)	0.93	-0.29
CC1CCN(S(=O)(=O)c2ccc3nc(-c4cccnc4)cc(C(=O)NCc4ccccn4)c3c2)CC1	0.76	-6.2
CCCN1CCN(CCCNC(=O)Cn2nc(-c3ccc(C)cc3)ccc2=O)CC1	0.98	-0.95
CCOC(=O)c1c(NC(=O)COc2cccc(C)c2C)sc2c1CCC(C)C2 (centres undefined)	1.1	2.8
c1ccc(N2CCN(c3nc4cccnc4s3)CC2)nc1	0.99	-0.24
CCCCC(=O)NCCc1cc2ccc(C)c(C)c2[nH]c1=O	1.1	1.7
COc1ccc(Nc2nc(C)cc(C)c2C(N)=O)cc1	1	0.5
CCCCCOc1ccc(NC(=O)C2OC3OC4(CCCCC4)OC3C3OC4(CCCCC4)OC23)cc1 (centres undefined)	0.97	-0.61
Clc1ccc(Nc2nc3nonc3n3nnnc23)cc1	0.82	-1.9
CCc1ccc(NC(=O)c2nn(-c3ccc(OC)cc3)c(=O)c3ccccc23)cc1	1	0.14
CCn1cc(C(=O)Nc2ccc(C)cc2Br)c2cc(OC)c(OC)cc2c1=O	1	0.21
Cn1cnc(S(=O)(=O)NCc2ccccc2)c1	1	0.21
Cc1c(C)n(C)c2ccc(C(=O)Nc3ccc(F)c(F)c3)cc12	0.9	-1.8
COc1cccc(-c2nn(C)c3sc(C(=O)NCCCN(C)Cc4ccccc4)cc23)c1	0.89	-3.1
CCC1=Nc2cc(C(=O)NCc3cccnc3)ccc2Sc2ccc(C)cc21	1	0.45
CCOc1cc(-c2nc(-c3ccccc3)c(-c3ccc(OC)cc3)[nH]2)ccc1O	0.73	-6.6
CCOC(=O)N1CCC(NC(=O)C2CCCN(Cc3nc(-c4ccc(CC)cc4)oc3C)C2)CC1 (centres undefined)	0.98	-0.64
Cc1ccc(C)c(Cc2c(C)nc3c(C(=O)NC4CCC(C)CC4)cnn3c2C)c1 (centres undefined)	0.75	-1.5

Next part.
SMILES	CBX7 inh	CBX7 inh z-score
O=C(NCCCc1ccccc1)c1ccc2c(c1)N(Cc1ccccc1)CCS2	0.99	-0.011
Cc1ccccc1NC(=O)c1ccc2c(c1)C(=O)N(c1ccccc1C)C2=O	1.1	0.56
CC1CCCC(NC(=O)C2CCCN(c3nnc(-n4cccc4)s3)C2)C1C (centres undefined)	1	0.77
COc1ccc2cc(CCNC(=O)C(C)C)c(=O)[nH]c2c1	0.98	-0.69
CS(=O)(=O)Nc1ccc(Cl)c2cccnc12	0.0026*	-21*
COc1ccc(CCNS(=O)(=O)c2c(C)noc2C)cc1OC	1	2.1
COc1c2c(nc3occc13)C(CC=C(C)C)(OC)C(O)CC2 (centres undefined)	1.1	1.3
CCOCCCNC(=O)c1c[nH]c2ccc(S(=O)(=O)Nc3cc(C)cc(C)c3)cc2c1=O	0.93	-1.3
COc1ccccc1-n1c(/C=C\c2cccc(C(F)(F)F)c2)nc2ccccc2c1=O	0.97	-0.85
Cc1ccccc1-c1nc(CS(=O)(=O)CC(=O)Nc2cc(Cl)ccc2Cl)c(C)o1	0.97	-0.74
CCOC(=O)c1cc(-c2ccccc2)n(CCC(=O)Nc2ccc(C(F)(F)F)cc2)c1C	0.9	-1.8
Cc1ccc2c(c1)N(CCC(=O)NCC1CCCO1)C(=O)C(C)O2 (centres undefined)	1.1	1.3
Cc1cc(=O)oc2c1ccc1occ(Nc3ccc(Br)c(Cl)c3)c12	1	0.44
O=C(Nc1ccccc1Cl)c1csc2c1CCCCC2	1.1	5.4
Cc1ccc(OCC(O)Cn2cnc3cc(C)c(C)cc32)cc1 (centres undefined)	0.072*	-17*
O=C(CN1CCN(Cc2ccc(Cl)cc2)C1=O)N1CCCCCC1	1.1	0.71
CC(=O)Nc1ccccc1-c1nc2ccc(C(=O)NC3CCCC3)cc2[nH]c1=O	0.99	-0.18
Cc1ccc(C)c(N2CC(c3nc4ccccc4n3Cc3ccc(F)cc3)CC2=O)c1 (centres undefined)	0.99	-0.041
O=C(Cn1nc(Cc2cccnc2)c2ccccc2c1=O)NC1CCCCCC1	1.1	1.7
CCOc1ccc2nc(N3CCCC(C(=O)NCCN4CCOCC4)C3)sc2c1 (centres undefined)	1	0.13
CC(C)CC(=O)NC(c1cccs1)c1ccc2cccnc2c1O (centres undefined)	0.1*	-3.2*
CC(Oc1ccc(F)cc1)C(=O)Nc1c(C(=O)c2ccc(Cl)cc2)oc2ccccc12 (centres undefined)	1.4	5.1
CCc1ccc(NC(=O)CN2C(=O)CSc3ncccc32)cc1	1.1	0.17
COc1ccc(NC(=O)COCc2cc(-c3ccc(F)cc3)on2)cc1OC	1	-0.051
COc1ccccc1CNC(=O)C(C)N1C(=O)COc2ccc(C)cc21 (centres undefined)	1	1
Cc1ccc(NC(=O)CN(c2cc(C)cc(C)c2)S(=O)(=O)c2c(C)noc2C)cc1	0.97	-0.22
CCCCNC(=O)c1ccc2c(c1)N(CC)C(=O)c1ccccc1S2	0.82	-3.7
COc1ccc(-c2nc(Nc3ccc(F)cc3Cl)c3ccccc3n2)cc1OC	1	1.4
Cc1ccc(Nc2c(-c3c[nH]c4ccccc34)nc3ccc(Cl)cn23)cc1	0.64	-2.9
CCCCSc1oc(-c2cccs2)nc1S(=O)(=O)c1ccc(F)cc1	1	-0.0074
COc1cc2c(=O)c(S(=O)(=O)c3ccccc3)cn(Cc3cccc(Cl)c3)c2cc1OC	0.89	-2.1
COc1ccc(OC)c2[nH]c(=O)c(CCNC(=O)C(C)Oc3ccccc3)cc12 (centres undefined)	0.9	-1.3
COc1ccc(OC)c2[nH]c(=O)c(CCNC(=O)c3cccc(F)c3)cc12	1	1.4
COc1ccc(-n2cnc3cc(NCc4ccc(OC)c(OC)c4)ccc32)cc1	0.96	-1.6
COc1ccc(-c2cc(C(=O)Nc3cc(Cl)ccc3Cl)no2)cc1	0.96	-0.82
CCCOc1ccc(C(=O)Nc2cccc(-c3nc4ccccc4o3)c2C)cc1	1.2	2.9
COc1cc(OC)cc(-c2cc3nc(C)c(CCC(=O)NCCC4=CCCCC4)c(C)n3n2)c1	0.99	-0.27
Cc1c(C(=O)Nc2ccccc2Cl)oc2ccc(S(=O)(=O)N3CCCCCC3)cc12	0.97	-1.2
O=C(CCc1nc(-c2ccccc2F)no1)NCCN1CCN(Cc2ccccc2)CC1	0.94	-0.13
CCN(CC)c1ccc(NC(=O)CCNS(=O)(=O)c2ccc3c(c2)CCC(=O)N3)c(C)c1	0.61	-7.7

For reference, 17 of the compounds above.
SMILES	CBX7 inh	CBX7 inh z-score
COc1ccc(NC(=O)COCc2cc(-c3ccc(F)cc3)on2)cc1OC	1	-0.051
COc1ccccc1CNC(=O)C(C)N1C(=O)COc2ccc(C)cc21 (centres undefined)	1	1
Cc1ccc(NC(=O)CN(c2cc(C)cc(C)c2)S(=O)(=O)c2c(C)noc2C)cc1	0.97	-0.22
CCCCNC(=O)c1ccc2c(c1)N(CC)C(=O)c1ccccc1S2	0.82	-3.7
COc1ccc(-c2nc(Nc3ccc(F)cc3Cl)c3ccccc3n2)cc1OC	1	1.4
Cc1ccc(Nc2c(-c3c[nH]c4ccccc34)nc3ccc(Cl)cn23)cc1	0.64	-2.9
CCCCSc1oc(-c2cccs2)nc1S(=O)(=O)c1ccc(F)cc1	1	-0.0074
COc1cc2c(=O)c(S(=O)(=O)c3ccccc3)cn(Cc3cccc(Cl)c3)c2cc1OC	0.89	-2.1
COc1ccc(OC)c2[nH]c(=O)c(CCNC(=O)C(C)Oc3ccccc3)cc12 (centres undefined)	0.9	-1.3
COc1ccc(OC)c2[nH]c(=O)c(CCNC(=O)c3cccc(F)c3)cc12	1	1.4
COc1ccc(-n2cnc3cc(NCc4ccc(OC)c(OC)c4)ccc32)cc1	0.96	-1.6
COc1ccc(-c2cc(C(=O)Nc3cc(Cl)ccc3Cl)no2)cc1	0.96	-0.82
CCCOc1ccc(C(=O)Nc2cccc(-c3nc4ccccc4o3)c2C)cc1	1.2	2.9
COc1cc(OC)cc(-c2cc3nc(C)c(CCC(=O)NCCC4=CCCCC4)c(C)n3n2)c1	0.99	-0.27
Cc1c(C(=O)Nc2ccccc2Cl)oc2ccc(S(=O)(=O)N3CCCCCC3)cc12	0.97	-1.2
O=C(CCc1nc(-c2ccccc2F)no1)NCCN1CCN(Cc2ccccc2)CC1	0.94	-0.13
CCN(CC)c1ccc(NC(=O)CCNS(=O)(=O)c2ccc3c(c2)CCC(=O)N3)c(C)c1	0.61	-7.7

(continued)
SMILES	CBX7 inh	CBX7 inh z-score
O=C(Nc1ccc(F)cc1)Nc1ccc2snnc2c1	1.1	4.7
COc1ccc(C(=O)NCCc2cc3c(OC)ccc(OC)c3[nH]c2=O)c(OC)c1	1	-0.14
O=C(NCc1ccccc1)C(=O)NCc1ccncc1	1	0.61
Cc1cccc(C)c1NC(=O)C1(N(C(=O)c2ccc(-n3cnnn3)cc2)c2ccccc2)CCCC1	0.96	-0.2
CCN(CC)S(=O)(=O)c1ccc2oc(C(=O)Nc3ccc(C)c(C)c3)c(C)c2c1	1	1.5
Cc1csc2ncc(C(=O)Nc3ccc(Br)cc3)c(=O)n12	0.97	-0.75
Cc1cc(C)n(-c2nc3ccccc3nc2Nc2ccc(N(C)C)cc2)n1	0.22*	-9.4*
COc1cc(OC)cc(-c2nc(-c3ccccn3)no2)c1	1	0.031
Cc1nn2cc(-c3ccc(Cl)cc3)nc2s1	1.1	1.4
COc1ccc(NC(=O)CCc2nc(-c3ccc(C)cc3)no2)cc1OC	1	0.16
COCCN(CCOC)S(=O)(=O)c1ccc(C(=O)Nc2nc(-c3ccc(C)c(C)c3)cs2)cc1	0.93	-1.7
